Ecoli growth – blocks Escherichia coli growth. OD600, 23 h; active compounds read low. OD600 absorbance (no concentration beside the values). 330,000 compounds, 0.21% hits;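 active = OD600 absorbance below the run mean of sample wells minus 3.6 SD, in any replicate, cut at about 0.56 in these data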;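 also: stock transfer was 300 nL into about 60 µL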
UCH37 DUB inh – blocks the human deubiquitinase UCH37; inhibition, % (test concentration not listed); 330,000 compounds, 0.33% hits; purified proteasome/UCH37, Ub-AMC cleavage fluorescence; Q9Y5K5;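 active = mean of two replicates above 20%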;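 also: 0% = compound-free wells with enzyme and 100% = wells lacking proteasome; stock transfer was 100 nL into about 20 µL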
Target sequence (Q9Y5K5 whole entry, looked up): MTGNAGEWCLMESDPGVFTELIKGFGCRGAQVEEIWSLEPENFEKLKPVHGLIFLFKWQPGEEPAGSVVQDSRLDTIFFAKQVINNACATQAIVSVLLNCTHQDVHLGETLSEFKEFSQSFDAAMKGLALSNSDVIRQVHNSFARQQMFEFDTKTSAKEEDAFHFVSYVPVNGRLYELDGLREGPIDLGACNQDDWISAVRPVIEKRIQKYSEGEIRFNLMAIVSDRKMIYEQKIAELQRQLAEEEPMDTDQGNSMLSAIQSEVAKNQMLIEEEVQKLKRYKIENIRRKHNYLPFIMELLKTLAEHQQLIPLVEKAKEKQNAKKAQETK
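Reagent: Ub-AMC substrate; assay system: Proteasome-associated human UCH37 deubiquitinase; controls: no-proteasome and no-compound wells; read-out: % inhibition of Ub-AMC cleavage fluorescence; timing: 30 min preincubation with enzyme, 25 min cleavage at room temperature; signal: AMC fluorescence from Ub-AMC cleavage, excitation 355 nm, emission 460 nm; buffer or medium: Tris-HCl pH 7.4 plus ovalbumin, ATP-MgCl2, DTT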
* hit, by the source's call.

SMILES	Ecoli growth	UCH37 DUB inh
Cc1[nH]n(-c2ccccc2)c(=O)c1C=NN1C(=O)c2cccc3cccc(c23)C1=O	0.65	13
COCc1cc(C)nc(NN=Cc2ccc(-c3cc(C(=O)O)ccc3Cl)o2)c1C#N	0.7	6.3
NC(=NOC(=O)c1ccc(Cl)c([N+](=O)[O-])c1)c1ccccn1	0.66	3.0
CC(CC(=O)Nc1ccccc1)=NNC(=O)COc1ccc(C)cc1Br	0.68	3.5
COc1ccc(C=NN2CCOCC2)cc1O	0.55*	0.8
O=S(=O)(NN=C1CCCc2ccccc21)c1ccccc1	0.72	1.4
COc1cccc(C=NNC(=O)CC2C(=O)NN=C2C)c1OC (stereo not given)	0.7	-9.0
CC(CC(=O)Nc1cccc(Cl)c1C)=NNC(=O)Cc1csc(N)n1	0.68	1.0
CC(C)Oc1ccc(C=NNC(=O)C(CSCc2ccccc2)NC(=O)c2ccc([N+](=O)[O-])cc2)cc1 (stereo not given)	0.73	2.8
Cc1ccc(CN2CCN(N=Cc3cccn3C)CC2)c(C)c1	0.69	0.3
Cn1c(C=Nc2nc3ccccc3[nH]2)nc2ccccc21	0.7	1.1
COc1ccc(Cl)cc1NC(=O)C(=O)NN=Cc1cc(C)n(-c2ccc(C)cc2)c1C	0.71	-16
O=C(NN=Cc1cc2c(cc1Cl)OCO2)c1ccc2c(c1)OCCO2	0.67	5.0
CN(C)C=Nc1nc2ncc(-c3ccc(Cl)cc3)c(N=CN(C)C)n2n1	0.68	-2.5
CC(=NO)C(C)/[N+]([O-])=C/c1nc(C)c(C)n1O (stereo not given)	0.77	2.4
Cc1ccc(NC(=S)NN=C2CCCc3c(C)cc(C)cc32)cc1	0.7	2.2
O=C(NN=Cc1ccccc1C(=O)O)C(=O)N1CCCCC1	0.73	3.5
CCOc1ccc(C=NNC(=O)c2c(C)nc3cc(C)ccn23)cc1	0.66	8.0
COc1cccc(C=c2sc(=CC(=O)c3ccc(C)cc3)[nH]c2=O)c1OC	0.71	1.5
COC(=O)NN=Cc1cn(Cc2c(Cl)cccc2Cl)c2ccccc12	0.64	4.3
C=CCn1c(NN=Cc2ccc(O)cc2)nc2ccccc2c1=O	0.65	1.4
Cc1ccc(COc2ccc(C=NO)cc2)cc1	0.68	0.7
Cc1ccc(C=NNC(=O)CSc2nc3ccccc3[nH]2)o1	0.62	-0.7
O=C(NN=Cc1ccc([N+](=O)[O-])cc1)c1cc(C2CC2)nc2ccccc12	0.63	6.2
Cc1ccc(OCC(=O)NN=Cc2cn(C)c3ccccc23)cc1	0.64	4.8
CC(=NNC(=O)c1nnn(-c2nonc2N)c1-c1ccccc1)c1ccco1	0.71	-14
CC(C)(NO)C(=NO)c1ccc(Br)cc1	0.69	5.0
O=S(=O)(N=C(Nc1ccccn1)c1ccccc1)c1ccccc1	0.71	4.3
COc1ccc(OC)c(C=NNc2cc(C)nc(N3CCOCC3)n2)c1	0.69	-31
Cn1nnnc1N=NC(=NNc1ccccc1)c1ccccc1	0.68	2.9
Cc1ccc(S(=O)(=O)N=C2SC(CC(=O)Nc3ccc(F)cc3)C(=O)N2c2ccccc2)cc1 (stereo not given)	0.73	-0.6
CC(Oc1ccccc1)C(=O)NN=Cc1ccccn1 (stereo not given)	0.65	0.2
CON=C(C)C(Cc1ccc(Cl)nc1)Cc1ccc(Cl)nc1	0.69	6.0
COc1ccc(C=NNC(=O)C(=O)N2CCCCCC2)cc1[N+](=O)[O-]	0.63	5.9
Cc1c(O)ccc(C=NNc2nc(-c3cccnc3)nc3ccccc23)c1O	0.67	2.3
Cc1ccsc1C=NNC(=O)CNC(=O)c1ccc(S(=O)(=O)N2CCOCC2)cc1	0.65	3.6
COc1ccc(C=NNC(=O)c2ccc(N3CCCC3=O)cc2)cc1	0.7	3.8
CCOc1ccccc1C=NNC(=O)c1nnn(-c2nonc2N)c1CN1CCC(C)CC1	0.71	4.6
COc1ccc(CC(=O)NN=Cc2cccnc2)cc1OC	0.66	0.1
O=C(O)COc1ccc(C=NNc2nc(Nc3ccccc3)nc(N3CCCCC3)n2)cc1	0.7	3.8

Gathered by group: those above containing a COOH group.
SMILES	Ecoli growth	UCH37 DUB inh
COCc1cc(C)nc(NN=Cc2ccc(-c3cc(C(=O)O)ccc3Cl)o2)c1C#N	0.7	6.3
O=C(NN=Cc1ccccc1C(=O)O)C(=O)N1CCCCC1	0.73	3.5
O=C(O)COc1ccc(C=NNc2nc(Nc3ccccc3)nc(N3CCCCC3)n2)cc1	0.7	3.8

Next records.
SMILES	Ecoli growth	UCH37 DUB inh
NC(=O)NN=Cc1cc(F)cc(F)c1	0.69	5.2
COc1ccccc1/C=C/C=NNc1cccc(C(=O)O)c1	0.68	3.2
COc1ccc(/C=C/C(=O)NCC(=O)NN=Cc2cc(Br)ccc2OCc2ccccc2)cc1	0.78	1.8
COc1cc(C=NNS(=O)(=O)c2ccccc2)cc(OC)c1OC	0.69	1.2
Cc1cc(C)nc(NN=CC2=C(N3CCOCC3)/C(=C\c3ccc(Cl)cc3)CC2)n1	0.7	-9.2
CC(=NNC(=O)C1(C)CC1(Br)Br)c1ccc(NC(=O)C2CCC2)cc1 (stereo not given)	0.66	5.8
COc1ccc(Br)cc1C=NNC(=O)CNC(=O)c1cccnc1	0.71	-3.9
COc1ccc(C=NNC(=O)Nc2cccc3nsnc23)cc1OC	0.73	-16
O=C(Cc1ccc(Cl)cc1)NN=Cc1ccccc1	0.7	0.9
CCOC(=O)c1csc(NN=C2CCc3ccccc32)n1	0.66	5.0
Cc1ccc(C=NNC(=O)c2ccc(NC(=O)c3ccccc3Cl)cc2)o1	0.63	-39
O=C(CSc1nc2ccccc2n1Cc1ccc(Cl)cc1)NN=Cc1ccc(C(=O)O)cc1	0.69	2.4
CC(C)(C)c1nnc(NN=Cc2ccccc2)n(N)c1=O	0.69	4.9
O=c1[nH]c2ccccc2nc1C=C(O)c1cccs1	0.75	3.7
O=C(Cn1cnc2ccccc21)NN=Cc1cccnc1	0.61	-0.8
COc1ccc(C=NNC(=O)Cc2cccs2)cc1	0.63	9.2
Cc1ncc(CO)c(C=NNC(=S)Nc2ccc(Cl)c(Cl)c2)c1O	0.61	-24
O=C(CNC(=O)c1ccccc1)NN=Cc1cc(Br)ccc1O	0.62	-8.1
COc1cc(C=NNC(=O)c2cccc([N+](=O)[O-])c2)ccc1OC(=O)c1ccco1	0.67	2.4
COc1ccc(C=NNC(=O)CCN2CCN(c3ccccc3)CC2)cc1OC	0.69	3.9
CC(=NNC(=O)C1CCCC1)c1ccc(Cl)cc1Cl	0.72	3.4
Cc1csc(=NN=Cc2ccc(O)cc2)n1Cc1ccco1	0.7	1.1
O=C(NN=Cc1coc2ccccc2c1=O)c1cc(Br)ccc1O	0.67	-69
O=c1cc(NN=Cc2ccccc2)[nH]c(=O)[nH]1	0.68	13
Cc1cc(C(=O)c2cnc(N=CN(C)C)s2)c(F)cc1Cl	0.72	-0.9
C/C(C=NN1CCN(Cc2ccc(C)cc2)CC1)=C/c1ccccc1	0.65	0.3
COc1ccc(C=NNC(=O)c2ccco2)cc1OCc1ccccc1	0.69	1.5
N#CC(=NO)c1nc(-c2ccc(F)cc2)cs1	0.67	-3.9
CCN=c1scc(-c2ccco2)n1N=Cc1ccc(O)cc1	0.75	5.8
Cc1ccc(S(=O)(=O)N=C(CN2CCOCC2)N2CCCC2)cc1	0.67	3.4
CN1CC(=NS(=O)(=O)c2ccccc2)N(C)C1=O	0.69	6.4
CCN(CC)S(=O)(=O)c1cccc(C(=O)NN=Cc2ccc(OC)c(O)c2)c1	0.71	11
CCOc1ccc(C(CCC(=O)O)=NNC(=S)NCCc2ccccc2)cc1	0.74	4.2
CCOc1cc(C=NNC(=O)C(O)(c2ccccc2)c2ccccc2)ccc1OC(=O)c1ccco1	0.68	4.2
O=C(NN=Cc1ccc(O)cc1)NC12CC3CC(CC(C3)C1)C2	0.66	2.8
Cc1ccc(C(=O)NN=Cc2cc3c(cc2Br)OCO3)s1	0.72	-56
Cn1c(=O)[nH]c(=O)c2c1nc(NN=C/C(Br)=C/c1ccccc1)n2CCO	0.69	1.6
O=C(NN=Cc1ccc([N+](=O)[O-])cc1)c1cccs1	0.62	12
CC(CCc1ccccc1)=NNC(=O)CCc1ccccc1	0.73	2.8
CS/C(N)=N/N=Cc1cc(Br)cc(Br)c1O	0.62	1.2

Retrieved by compound from the entries so far:
SMILES	Ecoli growth	UCH37 DUB inh
CC(CCc1ccccc1)=NNC(=O)CCc1ccccc1	0.73	2.8
N#CC(=NO)c1nc(-c2ccc(F)cc2)cs1	0.67	-3.9
Cc1ccc(S(=O)(=O)N=C(CN2CCOCC2)N2CCCC2)cc1	0.67	3.4
CS/C(N)=N/N=Cc1cc(Br)cc(Br)c1O	0.62	1.2

Later entries:
SMILES	Ecoli growth	UCH37 DUB inh
O=C(NN=Cc1ccc(OC(F)F)cc1)c1cc[n+]([O-])cc1	0.62	7.3
COc1ccc(OC)c(C(C)=NNC(=O)c2cc3cc(Cl)ccc3n2C)c1	0.66	3.9
Nc1nonc1-n1nnc(C(=O)NN=Cc2ccc(Cl)cc2Cl)c1CN1CCCC1	0.67	3.1
CC(=O)Nc1ccc(NC(=O)CC(C)=NNC(=O)C(=O)Nc2ccc(C)c(Cl)c2)cc1	0.6	2.2
CCc1nnc(NN=Cc2cccs2)n1N	0.71	10
O=C(NN=Cc1ccc(N2CCOCC2)o1)c1cccc(C(F)(F)F)c1	0.68	10
CCOc1ccc(C=Nn2nnnc2N)cc1OCC	0.66	-24
O=C(NN=Cc1ccc(N2CCOCC2)cc1)C1COc2ccccc2O1 (stereo not given)	0.66	-195
Cc1ccc(C=NNc2cc(C)nc(NCc3ccccc3)n2)cc1	0.59	2.0
CC(=NNc1nccnc1Cl)c1ccc(F)cc1	0.65	6.9
Cc1[nH]n(-c2ccccc2)c(=O)c1C=NN1CCOCC1	0.66	3.2
O=C(O)CCC(=NNc1ccc(Cl)cc1)c1cccs1	0.67	1.9
CC(=O)Nc1ccc(C=NNC(=O)c2cc(-c3ccco3)nc3ccccc23)cc1	0.68	-13
Cc1nc(NS(=O)(=O)c2ccccc2)sc1C(=O)NN=Cc1ccccc1	0.65	11
O=C(O)c1cc(NN=Cc2ccc(OCc3ccccc3)cc2)ccc1Cl	0.7	2.2
Cc1cc(C)cc(-n2c(C)cc(C=NNC(=O)CSc3ncccn3)c2C)c1	0.67	2.5
COc1cccc(C=Nn2c(-c3ccco3)nc3ccccc3c2=O)c1OC	0.7	1.4
Cc1ccc(/C=C2\SC(=S)N(N=Cc3cc([N+](=O)[O-])ccc3O)C2=O)o1	0.71	14
COc1ccc(Br)cc1C=NNC(=O)C[n+]1ccccc1	0.65	3.9
COc1ccc(C=NNC(=O)c2cccc([N+](=O)[O-])c2)cc1OC	0.69	5.6
O=C(O)CCCNC(=O)CC1S/C(=N/N=Cc2ccccc2O)NC1=O (stereo not given)	0.71	5.5
C=CCc1cccc(C=NNC(=O)C(C)Nc2ccc(C)cc2)c1O (stereo not given)	0.68	2.2
COc1ccc(C=NNC(=O)c2[nH]ncc2Br)c(OC)c1	0.66	3.9
COC(=O)COc1ccc(C=NNC(=O)c2ccc(N(Cc3ccccc3)S(C)(=O)=O)cc2)cc1	0.68	5.0
Cc1cc(=O)[nH]c(N=NC(=NNc2ccc(O)cc2)c2ccccc2)n1	0.62	6.8
COc1ccc(CCCC(=O)NN=Cc2ccc(C)cc2)cc1	0.69	2.6
Cc1ccc(C(=O)ON=C2CCSc3ccc(C)cc32)cc1	0.75	-3.8
CC(=NNC(N)=O)c1ccc(-n2ccnc2)cc1	0.6	-0.1
C(=Nn1cnnc1)c1ccc2ncccc2c1	0.64	3.6
Cc1cccc(C=Nn2c(C3CCCCC3)n[nH]c2=S)c1	0.6	0.7
Fc1ccc(C=NNc2cc(N3CCOCC3)ncn2)cc1	0.71	1.4
Cc1ccc(C=NNC(=O)COc2ccc(Cl)c(C)c2)o1	0.67	6.6
CNC(=O)C(=NO)c1ccccc1	0.68	3.0
Cc1cccc(C=NNC(=O)CN2CCCCCCC2)c1	0.71	1.9
CN(Cc1c(C(=O)NN=Cc2cc(F)ccc2F)nnn1-c1nonc1N)C1CCCCC1	0.67	16
O=[N+]([O-])c1ccc(C=NNc2nc(N3CCOCC3)nc(N3CCOCC3)n2)cc1	0.7	6.7
CC(/C=C/c1ccc2c(c1)OCO2)=NNC(=O)C(O)c1ccccc1 (stereo not given)	0.71	0.7
CC(=NNC(=O)CN1CCN(S(=O)(=O)c2ccc(Br)cc2)CC1)c1ccco1	0.69	-0.7
FC(F)(F)COc1nc(NN=Cc2cccnc2)nc(N2CCCCC2c2ccccn2)n1 (stereo not given)	0.69	1.1
CN(C)c1ccc(C=NN(CCC#N)C2=NS(=O)(=O)c3ccccc32)cc1	0.72	2.5
COc1ccccc1N1CCN(N=Cc2ccc(OC)c(OC)c2OC)CC1	0.68	2.0
O=C(Cc1n[nH]c(=O)[nH]c1=O)NN=Cc1cccc(Cl)c1	0.68	4.1
Cc1ccc(NC(=S)NN=Cc2ccc(Cl)c([N+](=O)[O-])c2)cc1	0.72	11

Seven entries already listed, arranged by their value in UCH37 DUB inh, descending:
smiles | UCH37 DUB inh
CN(Cc1c(C(=O)NN=Cc2cc(F)ccc2F)nnn1-c1nonc1N)C1CCCCC1 | 16
Cc1cc(=O)[nH]c(N=NC(=NNc2ccc(O)cc2)c2ccccc2)n1 | 6.8
C=CCc1cccc(C=NNC(=O)C(C)Nc2ccc(C)cc2)c1O (stereo not given) | 2.2
Fc1ccc(C=NNc2cc(N3CCOCC3)ncn2)cc1 | 1.4
FC(F)(F)COc1nc(NN=Cc2cccnc2)nc(N2CCCCC2c2ccccn2)n1 (stereo not given) | 1.1
CC(/C=C/c1ccc2c(c1)OCO2)=NNC(=O)C(O)c1ccccc1 (stereo not given) | 0.7
CC(=NNC(=O)CN1CCN(S(=O)(=O)c2ccc(Br)cc2)CC1)c1ccco1 | -0.7

Not all compounds are listed; rates above refer to the full screens.
